MgrA-DNA mod: S. aureus MgrA-DNA binding modulation | fluorescence polarization | inhibition, %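 (about 10 µg/mL by stock and volumes)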 | 84,000 tested, 0.13% active;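 active = above 50% in either of two replicates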;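 also: 0% = protein plus DNA without compound and 100% = DNA alone without protein; higher means less MgrA bound to DNA so lower polarization; one replicate is shown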
S aureus helic: blocks Staphylococcus aureus DNA helicase | purified S. aureus helicase, fluorescence unwinding assay; about half of the hits fall short of the stated cut | inhibition, %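 (tested at about 80 µM)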 | 120,000 tested, 0.05% active | AID 485395;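 active = both duplicates at 50% or more, or one of them with a favoured structure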;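 also: 0% = mean of negative control wells and 100% = mean of positive control wells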
* = called active by the depositor; / = not tested or not shown.

Results follow in this order: MgrA-DNA mod | S aureus helic
CCOC(=O)C1=C(O)C(=O)N(CCCn2ccnc2)C1c1ccc(OC)cc1 (stereo not drawn)
  / | 4
Cc1ccc(Nc2nc3nonc3n3nnnc23)cc1C
  1.9 | -5
COc1cc2nc(CN(C)Cc3ccc(C)o3)[nH]c(=O)c2cc1OC
  / | 7
Cc1noc(C)c1CN1C(=O)NC(CCc2ccccc2)C1=O (stereo not drawn)
  / | -6
c1ccc(N=P(c2ccc(N3CCOCC3)cc2N2CCOCC2)(N2CCOCC2)N2CCOCC2)cc1
  / | -6
CC(C)(CO)NC(=O)NCC12CC3CC(CC(C3)C1)C2
  / | 10
CN(C)C1(CNC(=O)C2COc3ccccc3O2)CCCCC1 (stereo not drawn)
  / | -8
CCS(=O)(=O)N1CCC(C(=O)OCC(=O)c2cc(C)n(C(C)C)c2C)CC1
  / | -5
COc1ccc(C(CC(=O)O)N2C(=O)c3ccccc3C2=O)cc1 (stereo not drawn)
  / | 11
Cc1nc2cc(S(=O)(=O)C(F)(F)F)ccc2s1
  / | 5
CCC(=O)Nc1c(C(=O)N2CCOCC2)oc2ccccc12
  / | -1
O=C(Nc1nnc(/N=C/c2cccs2)s1)c1ccc(Cl)cc1Cl
  / | -24
CCC1CCCCN1C(=O)CCNC(=O)Cn1cnc2ccccc2c1=O (stereo not drawn)
  / | 11
COC(=O)c1ccccc1OCCOCCOc1cccc2cccnc12
  -1.2 | 2
CC(=O)Nc1ccc(SCC(=O)C(C)(C)C)cc1
  / | 16
Fc1ccc(N=Cc2ccccc2)cc1
  -3.2 | /
c1ccc(Cn2cc(Cn3nnc(-c4ccccc4)n3)nn2)cc1
  -1.6 | 6
CC(C)(C)c1cc(NC(=O)/C=C/c2cccs2)n(-c2ccccc2)n1
  / | 1
O=C(NCc1cccnc1)c1noc2c1CCCC2
  -0.8 | 7
O=c1[nH]c2cc3c(cc2cc1CN(CCN1CCOCC1)C(=S)Nc1ccccc1)OCCO3
  -0.5 | 7

Next part, overlapping the part above by 6 compounds.
Results follow in this order: MgrA-DNA mod | S aureus helic
CC(=O)Nc1ccc(SCC(=O)C(C)(C)C)cc1
  / | 16
Fc1ccc(N=Cc2ccccc2)cc1
  -3.2 | /
c1ccc(Cn2cc(Cn3nnc(-c4ccccc4)n3)nn2)cc1
  -1.6 | 6
CC(C)(C)c1cc(NC(=O)/C=C/c2cccs2)n(-c2ccccc2)n1
  / | 1
O=C(NCc1cccnc1)c1noc2c1CCCC2
  -0.8 | 7
O=c1[nH]c2cc3c(cc2cc1CN(CCN1CCOCC1)C(=S)Nc1ccccc1)OCCO3
  -0.5 | 7
N#C/C=C/c1ccc(Br)cc1
  -1.2 | -2
Cc1cc(C(=O)CC(Sc2ccccc2N)c2c(F)cccc2Cl)ccc1Cl (stereo not drawn)
  -3.2 | /
c1ccc(-c2[nH]ncc2CN2CCN(Cc3ccc4c(c3)OCO4)CC2)cc1
  / | 20
CCC1(CC)Cc2ccccc2-c2nc3n(c(=O)c21)CCS3
  1.2 | 6
O=C(C[n+]1cccc(/C=N/O)c1)NCc1ccccc1
  -0.1 | 1
CCCNC(=O)c1ccc(-c2nc(CS(=O)c3ccccc3)c(C)o2)cc1 (stereo not drawn)
  / | 30
Nc1cc(C(F)(F)F)ccc1NCCC(=O)O
  0.6 | /
O=C(Cn1cc(/C=C2\SC(=S)NC2=O)c2ccccc21)NCc1ccco1
  30 | -36
O=C(NCc1cc(F)cc2c1OCOC2)c1ccc(N2CCOCC2)nc1
  / | 11
CN(C)/C=C(\C(=O)Nc1ccc(F)c(F)c1F)S(=O)(=O)c1ccccc1
  0.5 | /
COc1cc(-c2nc(=S)[nH][nH]2)cc(OC)c1OC
  7.3 | 14
Cc1ccc(S(=O)(=O)N(CCc2ccccn2)c2ccc(C(C)C)cc2)cc1
  1.3 | /
Cc1cc(C(F)(F)F)n2nc(-c3ccc(C(C)(C)C)cc3)cc2n1
  1.8 | /
COCCN(Cc1ccccc1)C(=O)c1cccc(S(=O)(=O)N2CC(C)OC(C)C2)c1 (stereo not drawn)
  / | -10
CCc1ccc(OCC(=O)Nc2cc(-c3nc4ccccc4o3)ccc2OC)cc1
  / | 11
CCN1C(=O)C(Cc2nc3ccccc3c(=O)n2CC)c2ccccc21 (stereo not drawn)
  / | 19
COCCNC(=O)Cc1ccc(C)cc1
  0.5 | 7
Cc1oc(C(=O)NC(=O)Nc2cccc(C(F)(F)F)c2)nc1-c1ccccc1
  / | 15
CC(C)(C)NC(=O)C1C2CCCCC21 (stereo not drawn)
  -0.2 | 3
COc1ccc(C(=O)c2cc(CC(=O)O)c(-c3ccc(OC)cc3)s2)cc1
  / | 7
COc1ccc(OC)c(C(=O)c2ccc(C(=O)N3CCCCC3)cc2)c1
  -2.4 | /
O=C(CN1C(=O)CCc2ccccc21)NCCc1ccccc1
  -0.6 | 4
CCOC(=O)c1c(C)oc2c1c(C=NCCC1=CCCCC1)c(O)c1ccccc12
  2.8 | -6
Cc1nn(-c2ccccc2)c2nc3c(cc12)C(=O)CC(C)(C)C3
  -0.9 | 10
COc1cccc2sc(=NC(=O)COc3ccc(Cl)cc3Cl)n(C)c12
  1.0 | 7
COc1ccc(NC(=O)C2(C)c3ccccc3-c3ccccc32)cc1
  -0.1 | 6
CN(CCc1ccccn1)Cc1ccc2c(c1)OCO2
  / | 3
Cc1ccc(C(CC(=O)NCc2ccco2)N2Cc3ccccc3C2=O)cc1 (stereo not drawn)
  / | -18
CN(CCc1ccccn1)c1ncnc2[nH]ncc12
  / | 14
Cc1ccc(S(=O)(=O)NCC(c2ccc(N(C)C)cc2)N(C)C)cc1 (stereo not drawn)
  / | 4
CC(CS(=O)(=O)c1ccc2c(c1)NC(=O)C(C)S2)C(=O)NCc1ccccc1 (stereo not drawn)
  / | 20
CC(C)(C)c1ccccc1OCC(=O)NCc1ccccc1
  0.2 | -12
N#C/C(=C(/O)CCCl)c1ccccn1
  -0.8 | 12
Cc1ccc(C)c(OCCC(=O)NCc2ccc3c(c2)OCO3)c1
  / | -10
Cc1oc2nc(SCC(=O)NC3CCCCC3)nc(N)c2c1C
  / | 6
Cc1ccc(-c2nn(C)c(=O)c3ccccc23)cc1CNC(=O)c1ccco1
  -0.7 | -10
CCN1CCN(C(=O)c2cn(-c3ccccc3)nc2-c2ccc(OC)cc2)CC1
  -1.9 | -23
S=c1[nH]c2ccc3ccccc3c2[nH]1
  -0.4 | 21
CN(C)S(=O)(=O)c1ccc(NC(=O)CNCc2ccco2)cc1
  -0.5 | 10
Cc1ccc(NC(=O)CN2CCc3ccccc32)cc1C
  / | -1
O=C(O)c1cccc(C(=O)O)c1F
  -1.8 | /
CN1CCN(C2=NC(=O)/C(=C\C=C/c3ccccc3)S2)CC1
  5.7 | -6
COc1ccc2nc(Cl)sc2c1
  / | 15
O=C(CCSCc1cnn(-c2ccccc2)c1-n1cccc1)NCc1cccs1
  -0.6 | 0
COC(=O)C1C2C=CC3(CN(C(C)c4ccncc4)C(=O)C13)O2 (stereo not drawn)
  -1.8 | 2
O=C1CCSc2cccc3cccc(c23)N1
  / | -30
Cc1nnsc1C(=O)Nc1ccccc1
  1.6 | /
Cc1c(C(=O)O)sc2[nH]c(=S)[nH]c(=O)c12
  / | 0
CCOc1ccc2[nH]c(=S)c(C#N)cc2c1
  -6.8 | 5
CCn1c(SCC(O)c2ccccc2)nnc1-c1ccccc1 (stereo not drawn)
  / | -8
CCCc1cc(=O)oc2c1c(C)nn2C
  -2.7 | /
O=C(c1ccccc1)n1c(=O)oc2ccccc21
  / | 22
COC(=O)C(Cc1c[nH]c2ccccc12)NS(=O)(=O)c1ccc(OC)cc1 (stereo not drawn)
  -1.7 | /
O=C(NCc1ccccc1)C1CCCN1c1nnc(N2CCCC2=O)s1 (stereo not drawn)
  -1.9 | 9
COc1ccc(C2C(C#N)=C(/N=C/N(C)C)Oc3c2c(C)nn3-c2ccccc2)cc1 (stereo not drawn)
  / | 12
CC(C)c1ccc(NC2(C#N)CCCCC2)cc1
  0.5 | /
Cn1cccc1/C=C1\CCC/C(=C\c2cccn2C)C1=O
  / | -98
COc1cc(OC)cc(C(=O)Nc2nc3ccc4ccccc4c3s2)c1
  / | -14
Cc1cccc(NC(=O)NC2CC3CCCC(C2)N3CC(C)C)c1 (stereo not drawn)
  0.8 | 5
O=C(c1ccc2ccccc2n1)N1CCCCCC1
  / | -10

Following part.
Results follow in this order: MgrA-DNA mod | S aureus helic
CSc1ccc(CCNCc2c(C(=O)O)n(C)c3cc(C)ccc23)cc1
  -0.7 | 9
CCn1c(=O)c(=O)[nH]c2cc(C(=O)NCC3CCCCC3)ccc21
  / | -3
CCOc1cc2c(C#N)c(N(CC)CC)nc(N)c2c(N)n1
  / | -32
NC(=O)CSc1nc2cc(Cl)ccc2o1
  -2.7 | -5
FC(F)(F)c1cc(-c2nccs2)nc2cc(-c3cccs3)nn12
  0.1 | /
O=S(=O)(c1ccc2c(c1)OCCO2)N1CCN(Cc2ccccc2)CC1
  / | -8
Cc1ccccc1C(C#N)C(CC#N)c1ccccc1 (stereo not drawn)
  3.7 | 9
Cc1ccc(N/N=C(/C#N)C(=N)N2CCCCCC2)cc1
  2.0 | 18
S=C(NC1CCCC1)N1CCN(C/C=C/c2ccccc2)CC1
  -0.1 | 2
CC(=O)Nc1ccc2c(c1)n(C)c(=O)n2C
  -3.9 | 9
O=C(Cn1nnc(-c2ccccc2Cl)n1)N1CCN(S(=O)(=O)c2ccc(Cl)cc2)CC1
  / | -3
COc1ccc(NC2(C(N)=O)CCCCC2)cc1
  2.9 | -24
c1ccc(CCNc2ccc3nncn3n2)cc1
  / | 4
COc1ccc(Cl)c2sc(N3CCN(C(=O)CS(=O)(=O)c4ccc(F)cc4)CC3)nc12
  / | 3
COc1ccc(OC)c(NC(=O)CN2C(=O)CC(C)(C)Sc3ccccc32)c1
  / | 6
NC(=O)N/N=C/c1coc2ccccc2c1=O
  / | -16
Cc1ccc(/C=C/C(=O)NC2CCCc3ccccc32)o1 (stereo not drawn)
  / | -6
CCC(C)C1N=C2c3ccccc3N=C(SCc3cc(=O)n4ccccc4n3)N2C1=O (stereo not drawn)
  0.6 | -4
CC(C)OC(=O)c1ccc(NC(=O)CSc2nc3ncccc3[nH]2)cc1
  -1.1 | 11
NC(=O)c1sc(-c2ccsc2)cc1NC(=O)c1cccs1
  0.9 | /
O=c1[nH]c2ccccc2n(-c2ccc(Cl)cc2)c1=O
  2.9 | /
Cc1ccc2cc3c(NCc4ccc(F)cc4Cl)n[nH]c3nc2c1
  -1.2 | 10
COC(=O)c1ccc(CSc2nnc3n(N)cnn23)cc1
  -1.4 | -3
C/C(=N\N(C)C)c1cc(Cl)cc(Cl)c1O
  -0.4 | /
Cc1ccc(CN2CCSc3ccc(C(=O)Nc4ccc(F)cc4)cc32)cc1
  0.7 | 11
CCOC(=O)C(C(=O)Cc1ccccc1)c1ccccc1 (stereo not drawn)
  2.3 | /
Cc1cccc(-c2noc(CNC(C)C)n2)c1
  / | 2
CC(C)(C)c1cc(CCC(=O)N2CCC2)cc(C(C)(C)C)c1O
  / | -18
O=C1CCCN=C(Nc2cccc(F)c2)S1
  -2.7 | /
O=C1Nc2ccccc2N2C1CC(=O)N(c1ccccc1)C2c1ccc(F)cc1 (stereo not drawn)
  / | 16
O/N=C/c1c(O)c(Br)cc2oc3c(c12)CCCC3
  14 | 7
CCC(=O)NCCCc1nc2ccccc2n1C
  / | -4
O=C(NCCN1CCOCC1)c1cccc(Cl)c1
  -3.8 | -4
CCOC(=O)c1c(C)[nH]c(NC(=O)NCc2cccnc2)c1C
  / | -6
O=S(=O)(Nc1nc2ccccc2nc1Nc1ccccc1F)c1ccc(Cl)cc1
  3.9 | 7
CCOc1ccc(OCC)c(NC(=O)C2CCCN(S(=O)(=O)c3cccs3)C2)c1 (stereo not drawn)
  / | 5
CC12CC3CC(C)(C1)CC(NCc1ccccn1)(C3)C2
  -2.2 | 8
Cn1ccnc1C(O)c1cccs1 (stereo not drawn)
  0.0 | 3
CN(Cc1ccccc1)S(=O)(=O)c1ccc(C(=O)Nc2nnc(-c3ccco3)o2)cc1
  / | 4
N#CC(C(=O)CCN1C(=O)c2ccccc2C1=O)c1nc2ccccc2[nH]1 (stereo not drawn)
  / | 21
NNS(=O)(=O)c1ccc(Cl)cc1
  -0.6 | /
Cc1cccc(-c2n[nH]c(=S)n2C2CCCCC2)c1
  -0.8 | 11
COc1ccc(OC)c(C(=O)CC2(O)C(=O)Nc3ccccc32)c1 (stereo not drawn)
  3.5 | 12
C/C(=N\OCc1ccccc1C#N)c1cc2ccccc2o1
  / | 3
C=CCn1c(SCC(=O)Nc2ccc3c(c2)OCO3)nc2ccccc2c1=O
  / | 7
CC1(C)CC2CC(C)(CN2C2=CC3=CC(=C(C#N)C#N)CCC3CC2)C1 (stereo not drawn)
  / | -114
CCCC(=O)Nc1nnc(-c2ccc(Cl)cc2)o1
  / | 9
C(=C\c1ccncc1)/c1ccncc1
  1.1 | 4
CCOC(=O)c1sc(N)c(C#N)c1COC(=O)CNC(=O)c1ccccc1
  / | -204
COC(=O)C12CCC(C)(C(=O)O1)C2(C)C (stereo not drawn)
  -0.3 | -1
CCc1ccc(C2=NN(CCC(=O)NC(C)CC)C(=O)CC2)cc1 (stereo not drawn)
  -0.3 | 11
CC(=O)Nc1ccc([N+](=O)[O-])cc1[N+](=O)[O-]
  11 | /
CCOc1c(C)nc(C)c(OCC)c1-c1cccc([N+](=O)[O-])c1
  2.7 | /
Cc1sc2ncnc(N)c2c1C
  / | -13
N#C/C(=C/c1cn(-c2ccccc2)nc1-c1cc2ccccc2oc1=O)C(N)=O
  0.0 | -7

Among those listed so far, these have bromine.
Results follow in this order: MgrA-DNA mod | S aureus helic
N#C/C=C/c1ccc(Br)cc1
  -1.2 | -2
O/N=C/c1c(O)c(Br)cc2oc3c(c12)CCCC3
  14 | 7

Screens (PubChem)

A portion of the library; rates above refer to the full screens.
